Assay outcomes from PubChem BioAssay.
Yeast UUG start – modulators of yeast start codon fidelity, primary screen, whole organism, S. cerevisiae, single point, plate reader. S. cerevisiae UUG-firefly luciferase reporter, luminescence/redox ratio. activity score, % at 18.7 µM. 0.13% of 350,000 active;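 active means replicate mean at a twofold rise or more, about +100% in these data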;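 further: firefly luciferase made from a UUG start codon reports start codon fidelity; reporter light over untreated wells divided by growth signal over untreated wells; some hits fall short of that in this replicate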
Active calls of the source: *. An excerpt; rates above refer to the full screens.

SMILES | Yeast UUG start
CCCNC(=O)N1C[C@H](O)COC[C@H]2O[C@H](CC(=O)N3CCOCC3)CC[C@@H]21 | -16
CC(=O)Nc1ccc2c(c1)C(=O)N(C)[C@@H]1CC[C@@H](CC(=O)NCc3ccc(Cl)cc3)O[C@H]1CO2 | 5
COc1ccc(S(=O)(=O)N(C)C[C@H]2Oc3c(NC(=O)c4cnccn4)cccc3C(=O)N([C@@H](C)CO)C[C@@H]2C)cc1 | -3
COCC#Cc1ccc([C@@H]2[C@@H](CO)N3CCCCN(S(=O)(=O)c4ccccc4F)C[C@H]23)cc1 | 14
C[C@H](NC(=O)[C@@H]1[C@@H](CO)[C@@H]2Cn3c(ccc(C4=CCCC4)c3=O)[C@@H]2N1C)c1ccccc1 | 24
Cc1cc(NC(=O)C(C)SCC(=O)NCc2ccc(F)cc2)no1 (stereo not given) | -4
Cc1ccc(-c2ccc([C@@H]3[C@H]4CN(S(=O)(=O)c5cccc(C)c5)CCCCN4[C@H]3CO)cc2)cc1 | 2
Cc1ccccc1-c1ccc([C@H]2[C@H](CO)N3CCCCN(C(=O)CN4CCOCC4)C[C@@H]23)cc1 | 16
COc1cccc(-c2ccc([C@@H]3[C@H](CO)N4CCCCN(Cc5cncnc5)C[C@@H]34)cc2)c1 | -15
C[C@@H]1CN([C@@H](C)CO)C(=O)c2cc(NS(C)(=O)=O)ccc2O[C@@H]1CN(C)Cc1ccc(C(=O)O)cc1 | -8
Cc1cc(C(=O)Nc2cccc3c2O[C@@H](CN(C)C(=O)Nc2c(C)noc2C)[C@@H](C)CN([C@@H](C)CO)C3=O)n(C)n1 | -7
COc1ccc(NC(=O)N(C)C[C@@H]2Oc3ccc(NC(=O)NC(C)C)cc3C(=O)N([C@H](C)CO)C[C@H]2C)cc1 | 6
CC(C)NC(=O)N1C[C@@H]2[C@H](c3ccccc31)[C@H](CO)N2C(=O)C1CCCC1 | -8
Cc1ccc(S(=O)(=O)N(C)C[C@H]2OCc3ccccc3-c3c(n(C)c4ccccc34)C(=O)N([C@@H](C)CO)C[C@@H]2C)cc1 | -12
O=S(=O)(Cc1ccccc1)N1CCCCN2[C@@H](CO)[C@H](c3ccc(-c4cncnc4)cc3)[C@@H]2C1 | -1
O=C(C1CC1)N1C[C@@H]2[C@H](c3ccccc31)[C@@H](CO)N2C(=O)c1cccc(F)c1 | 3
O=C(NCC1CC1)[C@H]1[C@H](CO)[C@H]2Cn3c(cccc3=O)[C@@H]1N2C(=O)c1cccnc1 | -11
CN1c2ccc(C#Cc3cccnc3)cc2[C@@H]2[C@@H](CCN2S(=O)(=O)c2ccccc2F)[C@@H]1CO | 9
CO[C@H]1CN(C)C(=O)c2ccc(NC(=O)C3CC3)cc2OC[C@H](C)N(Cc2ccccc2)C[C@H]1C | 26
CN(C)C(=O)C[C@@H]1C[C@H]2c3cc(NC(=O)Nc4ccc(C(F)(F)F)cc4)ccc3O[C@H]2[C@@H](CO)O1 | 4
COc1cccc(-c2ccc3c(c2)[C@H]2[C@H](CCN2C(=O)CN2CCOCC2)[C@@H](CO)N3)c1 | -4
CO[C@H]1CN(C)C(=O)c2cc(NC(=O)Nc3cccc(Cl)c3)ccc2OC[C@@H](C)N(C)C[C@@H]1C | 15
C[C@H](CO)N1C[C@H](C)[C@H](CN(C)Cc2ccc(Oc3ccccc3)cc2)Oc2ccc(NC(=O)Cn3cnnn3)cc2C1=O | 14
C[C@@H]1CN([C@@H](C)CO)C(=O)c2cc(NS(=O)(=O)c3ccccc3)ccc2O[C@H]1CN(C)C(=O)NC1CCCCC1 | 11
OC[C@H]1[C@@H](c2ccc(-c3ccc(F)cc3)cc2)[C@@H]2CN(Cc3ccccn3)CCCCN12 | -40
O=C(C[C@@H]1CC[C@H]2[C@@H](COC[C@H](O)CN2Cc2cccc(C(F)(F)F)c2)O1)NCc1ccc(F)cc1 | -16
C[C@H]1CN([C@@H](C)CO)C(=O)c2cc(NC(=O)C3CCCCC3)ccc2O[C@H]1CN(C)Cc1ccc(Cl)c(Cl)c1 | -1
CO[C@H]1CN(C)C(=O)c2cc(NC(=O)c3ccc(F)cc3)ccc2OC[C@@H](C)N(C(=O)c2ccc(F)cc2)C[C@@H]1C | 10
C[C@@H]1CN([C@H](C)CO)C(=O)c2cc(NC(=O)CCN3CCOCC3)ccc2O[C@@H]1CN(C)Cc1ccc(C(=O)O)cc1 | 14
O=C([C@@H]1[C@@H](CO)[C@@H]2Cn3c(ccc(-c4ccncc4)c3=O)[C@H]1N2Cc1cccnc1)N1CCOCC1 | -23
COCCN(C[C@H]1[C@@H](c2ccccc2)[C@H](CO)N1C(=O)C1CCC1)C(C)=O | -11
C[C@@H]1CN([C@@H](C)CO)C(=O)c2cc(NC(=O)Nc3ccc(F)cc3)ccc2O[C@H]1CN(C)C | 7
O=C(C[C@@H]1CC[C@@H]2[C@H](COC[C@H](O)CN2Cc2cccc(Cl)c2)O1)NCc1cccc(F)c1 | 10
CO[C@H]1CN(C)C(=O)c2ccc(NS(C)(=O)=O)cc2OC[C@@H](C)NC[C@H]1C | -24
COc1ccccc1C(=O)N1C[C@H]2[C@@H](c3ccccc31)[C@H](CO)N2C(=O)C1CCOCC1 | -2
CO[C@@H]1CN(C)C(=O)c2cc(NS(C)(=O)=O)ccc2OC[C@@H](C)N(CCC(F)(F)F)C[C@H]1C | 5
CCCNC(=O)C[C@@H]1CC[C@H]2[C@@H](COC[C@H](O)CN2Cc2cccc(F)c2)O1 | 5
C[C@@H]1CN([C@H](C)CO)C(=O)c2cc(NS(=O)(=O)c3cccs3)ccc2O[C@H]1CN(C)Cc1ccc(C(=O)Nc2ccccc2N)cc1 | 10
O=S(=O)(c1ccccc1)N1CCCCN2[C@H](C1)[C@H](c1ccc(C#Cc3ccccc3)cc1)[C@@H]2CO | -9
C/C=C/c1ccc2c(c1)[C@H]1[C@H](CCN1S(=O)(=O)c1ccc(C)cc1)[C@H](CO)N2 | -13
CCCNC(=O)C[C@@H]1CC[C@@H]2[C@H](COC[C@@H](O)CN2Cc2cccc(F)c2)O1 | 107*
C[C@H](CO)N1C[C@H](C)[C@@H](CN(C)S(=O)(=O)c2cn(C)cn2)Oc2ccc(NS(C)(=O)=O)cc2C1=O | -15
CN1c2ccc(-c3cccc(C#N)c3)cc2[C@H]2[C@H](CCN2S(=O)(=O)c2cccc(F)c2)[C@@H]1CO | -10
COCC(=O)N1CC[C@@H]2[C@H]1c1cc(-c3cccc(OC)c3)ccc1N(C)[C@H]2CO | 0
CCCNC(=O)[C@@H]1[C@@H](CO)[C@@H]2Cn3c(ccc(-c4ccc(OC)cc4)c3=O)[C@@H]2N1CCC | 1
C[C@H]1CN([C@@H](C)CO)C(=O)c2cccc(NS(C)(=O)=O)c2O[C@H]1CN(C)Cc1ccc(Oc2ccccc2)cc1 | -9
C[C@H]1CN([C@@H](C)CO)C(=O)c2cccc(NC(=O)Nc3ccccc3)c2O[C@H]1CN(C)S(C)(=O)=O | -5
O=C(NCC1CC1)[C@H]1[C@H](CO)[C@H]2Cn3c(ccc(-c4cccnc4)c3=O)[C@@H]1N2C(=O)C1CCC1 | -8

A few values from the entries so far.
Result for C/C=C/c1ccc2c(c1)[C@H]1[C@H](CCN1S(=O)(=O)c1ccc(C)cc1)[C@H](CO)N2 under Yeast UUG start: -13
Result for COCC(=O)N1CC[C@@H]2[C@H]1c1cc(-c3cccc(OC)c3)ccc1N(C)[C@H]2CO under Yeast UUG start: 0
Result for C[C@H]1CN([C@@H](C)CO)C(=O)c2cccc(NC(=O)Nc3ccccc3)c2O[C@H]1CN(C)S(C)(=O)=O under Yeast UUG start: -5
Result for CCCNC(=O)[C@@H]1[C@@H](CO)[C@@H]2Cn3c(ccc(-c4ccc(OC)cc4)c3=O)[C@@H]2N1CCC under Yeast UUG start: 1

(continued)
SMILES | Yeast UUG start
C[C@H]1CN([C@@H](C)CO)C(=O)c2cc(NC(=O)Nc3ccc(C(F)(F)F)cc3)ccc2O[C@H]1CN(C)S(C)(=O)=O | 6
CS(=O)(=O)Nc1ccc2c(c1)[C@@H]1C[C@@H](CC(=O)N3CCCCC3)O[C@H](CO)[C@@H]1O2 | -8
COc1ccc(S(=O)(=O)N(C)C[C@@H]2Oc3ccc(NC(=O)CCCN(C)C)cc3CC(=O)N([C@H](C)CO)C[C@H]2C)cc1 | -3
CCCC#Cc1ccc2c(c1)[C@@H]1[C@@H](CCN1S(=O)(=O)c1ccccc1)[C@@H](CO)N2C | -3
COc1ccc(NC(=O)N2C[C@@H](O)COC[C@H]3O[C@@H](CC(=O)NCc4ccccc4OC)CC[C@@H]32)cc1 | 11
C[C@@H]1CN([C@H](C)CO)C(=O)c2cccc(NC(=O)C3CCCCC3)c2O[C@H]1CN(C)C(=O)Nc1ccccc1 | 8
Cc1cccc(-c2ccc([C@H]3[C@H](CO)N4CCCCN(S(=O)(=O)c5cccs5)C[C@@H]34)cc2)c1 | 2
CCC(=O)N(CC)C[C@@H]1[C@@H](c2ccc(-c3cccnc3)cc2)[C@H](CO)N1C(C)=O | -14
COCCNC(=O)C[C@H]1C[C@H]2c3cc(NC(=O)Nc4ccccc4)ccc3O[C@H]2[C@@H](CO)O1 | -6
Cc1ccccc1S(=O)(=O)N1C[C@H](O)COC[C@@H]2O[C@H](CC(=O)N3CCC(Cc4ccccc4)CC3)CC[C@H]21 | 20
C[C@H](CO)N1C[C@H](C)[C@@H](CN(C)S(=O)(=O)c2ccc(Cl)cc2)Oc2c(NC(=O)C3CCOCC3)cccc2C1=O | 27
C[C@@H]1CN([C@@H](C)CO)C(=O)Cc2cc(NS(C)(=O)=O)ccc2O[C@@H]1CN(C)C | -4

An excerpt of these results, field by field.
> COCCNC(=O)C[C@H]1C[C@H]2c3cc(NC(=O)Nc4ccccc4)ccc3O[C@H]2[C@@H](CO)O1
  Yeast UUG start: -6
> Cc1ccccc1S(=O)(=O)N1C[C@H](O)COC[C@@H]2O[C@H](CC(=O)N3CCC(Cc4ccccc4)CC3)CC[C@H]21
  Yeast UUG start: 20
> C[C@H](CO)N1C[C@H](C)[C@@H](CN(C)S(=O)(=O)c2ccc(Cl)cc2)Oc2c(NC(=O)C3CCOCC3)cccc2C1=O
  Yeast UUG start: 27

(list continues)
SMILES | Yeast UUG start
C[C@H]1CN([C@@H](C)CO)C(=O)c2cccc(NC(=O)c3ccc(-c4nccs4)cc3)c2O[C@H]1CN(C)Cc1ccc(C(F)(F)F)cc1 | -2
COCC(=O)N1CCCCN2[C@H](C1)[C@@H](c1ccc(C#Cc3ccccc3)cc1)[C@@H]2CO | 2
Cc1noc(C)c1NC(=O)Nc1cccc2c1O[C@@H](CN(C)Cc1ccc(-c3ccccc3)cc1)[C@@H](C)CN([C@H](C)CO)C2=O | 15
O=C(c1ccncc1)N1CC[C@@H]2[C@H]1c1cc(Br)ccc1N[C@@H]2CO | -9
C[C@H]1CN([C@@H](C)CO)C(=O)c2cccc(NC(=O)Nc3ccc(F)cc3)c2O[C@H]1CN(C)C | 18
COCCN(C[C@@H]1[C@H](c2ccccc2)[C@@H](CO)N1C(=O)C1CCC1)C(C)=O | -1
COc1ccc(C(=O)N2C[C@H]3[C@@H](c4ccccc42)[C@@H](CO)N3C(=O)c2ccc(F)cc2)cc1 | 0
CCCC(=O)N1C[C@@H]2[C@H](c3ccccc31)[C@H](CO)N2C(=O)Nc1ccc(F)cc1 | 17
Cc1cccc(-c2ccc([C@@H]3[C@@H](CO)N4CCCCN(Cc5ccncc5)C[C@H]34)cc2)c1 | 9
N#Cc1ccc(-c2ccc3c(c2)[C@@H]2[C@@H](CCN2C(=O)Cc2ccccc2)[C@H](CO)N3)cc1 | 2
CC(C)NC(=O)N(C)C[C@H]1OCc2ccccc2-c2c(n(C)c3ccccc23)C(=O)N([C@@H](C)CO)C[C@H]1C | -9
COc1cccc(-c2ccc([C@H]3[C@@H](CO)N4CCCCN(CC5CCOCC5)C[C@H]34)cc2)c1 | -8

A draw from above in order of length of the SMILES, lowest first:
SMILES | Yeast UUG start
O=C(c1ccncc1)N1CC[C@@H]2[C@H]1c1cc(Br)ccc1N[C@@H]2CO | -9
Cc1cccc(-c2ccc([C@@H]3[C@@H](CO)N4CCCCN(Cc5ccncc5)C[C@H]34)cc2)c1 | 9
COc1ccc(C(=O)N2C[C@H]3[C@@H](c4ccccc42)[C@@H](CO)N3C(=O)c2ccc(F)cc2)cc1 | 0

Remaining list, next part.
SMILES | Yeast UUG start
CCCNC(=O)C[C@@H]1CC[C@H]2[C@@H](COC[C@@H](O)CN2C(=O)c2ccccn2)O1 | -15
CO[C@H]1CN(C)C(=O)c2cc(NC(=O)C3CCCC3)ccc2OC[C@@H](C)N(CC2CC2)C[C@H]1C | -5
COCC(=O)Nc1ccc2c(c1)C(=O)N(C)[C@@H]1CC[C@@H](CC(=O)NCCCN(C)C)O[C@@H]1CO2 | -7
CC(C)NC(=O)N1CCCCN2[C@H](CO)[C@@H](c3ccc(C#CC4CC4)cc3)[C@H]2C1 | 11
CN1CCCCN2[C@H](C1)[C@@H](c1ccc(-c3cccnc3)cc1)[C@@H]2CO | -9
O=C(C[C@@H]1CC[C@@H]2[C@H](COC[C@@H](O)CN2C(=O)c2ccncc2)O1)NC1Cc2ccccc2C1 | -10
CC(C)NC(=O)Nc1cccc2c1O[C@H](CN(C)C(=O)Nc1ccc3c(c1)OCO3)[C@@H](C)CN([C@H](C)CO)C2=O | -4

In the list so far, 2 contain a thiophene ring, fused or not:
SMILES | Yeast UUG start
C[C@@H]1CN([C@H](C)CO)C(=O)c2cc(NS(=O)(=O)c3cccs3)ccc2O[C@H]1CN(C)Cc1ccc(C(=O)Nc2ccccc2N)cc1 | 10
Cc1cccc(-c2ccc([C@H]3[C@H](CO)N4CCCCN(S(=O)(=O)c5cccs5)C[C@@H]34)cc2)c1 | 2
